Bioassay records: PubChem, ICCB-Longwood Screening Facility, Harvard Medical School
Mtb MbtI inh: MbtI salicylate synthase inhibition | P9WFX0 | AID 493033 | hit rate 0.89% among 100,000 | inhibition, %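 (about 17 µg/mL by stock and volumes)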 | purified MbtI enzyme, fluorescence intensity read-out;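 active = above 50% in both replicates, above 80% if mildly self-fluorescent; inactive = the rest, strongly fluorescent compounds included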;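 note: 0% = mean of negative and 100% = mean of positive controls; one replicate is shown; some compounds called inactive have numbers as strong as hits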
Mtb MenB inh: blocks the Mycobacterium tuberculosis MenB enzyme; hit rate 0.43% among 100,000; inhibition, %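 (about 12 µg/mL by stock and volumes)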; MenB enzyme assay, absorbance read-out; some hits fall short of the stated cut; P9WNP5;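 active = mean of two replicates above 30%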;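 note: 0% = no compound and 100% = wells with inactive enzyme; the first replicate is given; strong numbers were not always called active; inactives centre near -10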
Target sequence (P9WNP5 whole entry, looked up): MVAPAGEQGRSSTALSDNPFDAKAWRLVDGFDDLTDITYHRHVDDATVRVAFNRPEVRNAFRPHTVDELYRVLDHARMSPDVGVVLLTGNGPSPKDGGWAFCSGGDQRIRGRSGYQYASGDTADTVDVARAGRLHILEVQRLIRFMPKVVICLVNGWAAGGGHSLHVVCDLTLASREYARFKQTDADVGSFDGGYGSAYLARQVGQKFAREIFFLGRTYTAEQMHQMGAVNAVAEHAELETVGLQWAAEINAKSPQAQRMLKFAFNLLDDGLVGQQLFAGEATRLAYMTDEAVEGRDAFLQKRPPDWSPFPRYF
PV pol inh: poliovirus RNA polymerase inhibition. P03300. poliovirus polymerase elongation, fluorescence polarization; stronger effect = lower value. % elongation, % (compound at 16.7 µg/mL). hit rate 0.66% among 150,000. AID 588519; in the data active = % elongation below about 90%; note: some results filed as inactive read as strong as hits
Target sequence (P03300 1749-2209 limits assumed): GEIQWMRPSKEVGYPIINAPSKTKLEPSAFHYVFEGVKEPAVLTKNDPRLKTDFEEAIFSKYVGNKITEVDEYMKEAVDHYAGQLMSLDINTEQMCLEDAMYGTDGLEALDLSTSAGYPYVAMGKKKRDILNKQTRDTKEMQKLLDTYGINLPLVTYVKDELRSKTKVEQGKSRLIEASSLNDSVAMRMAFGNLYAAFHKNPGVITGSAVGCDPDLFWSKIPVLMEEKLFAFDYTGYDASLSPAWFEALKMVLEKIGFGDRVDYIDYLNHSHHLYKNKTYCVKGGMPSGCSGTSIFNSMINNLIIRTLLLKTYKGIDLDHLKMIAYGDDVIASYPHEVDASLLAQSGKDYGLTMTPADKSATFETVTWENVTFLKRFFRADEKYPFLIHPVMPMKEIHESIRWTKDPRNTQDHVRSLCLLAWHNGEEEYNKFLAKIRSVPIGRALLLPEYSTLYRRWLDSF
PV pol inh intensity: recorded beside PV pol inh, whose call it bears; % elongation; measured here: total intensity read-out; formula for this scale not given here;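 total fluorescence in place of polarization; lower means less elongation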
Starred values were filed as active, the others as inactive; i = inactive; · = not tested or not shown.

The first 4 compounds as a preview:
structure | Mtb MbtI inh | Mtb MenB inh | PV pol inh | PV pol inh intensity
Cc1cccc(C)c1NC(=O)Cn1nc(-c2ccc3c(c2)OCCO3)ccc1=O | 28.6 | 17.5 | 101.0 | 103.0
COc1cc2c(c(O)c1OC)CC(=O)CCC2 | -8.9 | · | 100.0 | 107.0
Cc1cc(NC(=O)CCC2CCCC2)nc2c1c(=O)oc1ccccc12 | 4.2 | -8.7 | 104.0 | 110.0
CC(C)(C)C(=O)/C=c1\s/c(=C\c2ccc3c(c2)OCO3)c(=O)n1Cc1cc(=O)n2ccsc2n1 | 1.5 | -28.1 | 134.0 | 140.0

This part in full, previewed entries included:
structure | Mtb MbtI inh | Mtb MenB inh | PV pol inh | PV pol inh intensity
Cc1cccc(C)c1NC(=O)Cn1nc(-c2ccc3c(c2)OCCO3)ccc1=O | 28.6 | 17.5 | 101.0 | 103.0
COc1cc2c(c(O)c1OC)CC(=O)CCC2 | -8.9 | · | 100.0 | 107.0
Cc1cc(NC(=O)CCC2CCCC2)nc2c1c(=O)oc1ccccc12 | 4.2 | -8.7 | 104.0 | 110.0
CC(C)(C)C(=O)/C=c1\s/c(=C\c2ccc3c(c2)OCO3)c(=O)n1Cc1cc(=O)n2ccsc2n1 | 1.5 | -28.1 | 134.0 | 140.0
Cn1nc(C(=O)N(Cc2cccs2)C2CCCC2)c2c1-c1ccccc1SC2 | 2.8 | -7.4 | 101.0 | 103.0
CCC(C)NC(=O)Cc1csc(-c2ccccc2)n1 (stereo unspecified) | -13.2 | -22.3 | 104.0 | 101.0
O=C(NCCc1cn2ccccc2n1)C1CCCCC1 | 106.8 | -11.8 | 101.0 | 110.0
COc1cc(OC)c(C(=O)COc2ncnc3ccccc23)c(OC)c1 | 8.2 | -32.1 | 106.0 | 107.0
S=C(NCCCn1ccnc1)NCc1cccs1 | 2.9 | 9.2 | 95.0 | 97.0
Cc1cc(=O)oc2c(C)c(OC(=O)c3ccco3)ccc12 | -28.6 | -27.3 | 103.0 | 101.0
O=C(CC(c1ccccc1)c1ccccc1)Nc1ccccn1 | · | -10.7 | 103.0 | 109.0
CCc1ccc2[nH]c(=O)c(CN(CCN3CCCC3)C(=O)NCc3ccccc3)cc2c1 | 121.2 | -34.9 | 102.0 | 103.0
CC(Sc1nnc(Nc2ccccc2F)s1)C(=O)NC1(C#N)CCCCC1 (stereo unspecified) | 13.7 | -1.2 | 103.0 | 101.0
O=C1c2ccccc2CC1Sc1nnc(-c2ccco2)c(-c2ccco2)n1 (stereo unspecified) | 96.5* | 5.2 | 99.0 | 96.0
CCOCCCn1c(SCC(=O)NC2(C#N)CCCCC2)nc2ccccc2c1=O | 15.1 | -12.8 | 102.0 | 102.0
CN(CC(=O)Nc1ncc(Cl)cc1Cl)Cc1ccc(Cl)cc1 | -3.2 | 7.0 | 105.0 | 120.0
Cc1cc(C(=O)N/N=C2\CC(c3ccccc3)Oc3ccccc32)c(C)o1 (stereo unspecified) | -8.6 | -19.8 | 102.0 | 102.0
O=C1CCC(C(=O)OCc2ccccc2C(F)(F)F)=NN1 | 6.0 | -4.2 | 103.0 | 106.0
O=C(O)CSCC(=O)N1CCN(c2ccc(F)cc2)CC1 | -3.2 | -10.5 | 100.0 | 102.0
O=c1oc2ccc(Cl)cc2n1CN1CCCCC1 | · | -19.1 | 108.0 | 102.0

Copied from above for reference:
structure | Mtb MbtI inh | Mtb MenB inh | PV pol inh | PV pol inh intensity
O=C1CCC(C(=O)OCc2ccccc2C(F)(F)F)=NN1 | 6.0 | -4.2 | 103.0 | 106.0
O=C(O)CSCC(=O)N1CCN(c2ccc(F)cc2)CC1 | -3.2 | -10.5 | 100.0 | 102.0
O=c1oc2ccc(Cl)cc2n1CN1CCCCC1 | · | -19.1 | 108.0 | 102.0

Remaining list, next part
structure | Mtb MbtI inh | Mtb MenB inh | PV pol inh | PV pol inh intensity
CC(=O)Oc1ccc(N(C(C)=O)S(=O)(=O)c2ccc3ccccc3c2)cc1 | 5.5 | -1.8 | 103.0 | 104.0
Cc1c(F)cccc1NC(=O)OCc1ccccc1 | -14.6 | -20.6 | 102.0 | 104.0
COc1cccc2sc(Nc3sc4c(c3C(N)=O)CCCC4)nc12 | 76.5 | -26.2 | 102.0 | 110.0
COc1ccc(-n2cnc3cc(N=Cc4nc5ccccc5n4C)ccc32)cc1 | -12.8 | -8.6 | 101.0 | 98.0
CC(C)c1nc2cc(N)ccc2n1C | 90.1 | -0.5 | 99.0 | 100.0
O=c1c2c(Br)c3c(=O)n(CCO)c(=O)c3c(Br)c2c(=O)n1CCO | 0.5 | -16.6 | 90.0 | 115.0
CCOc1ccc2nc(Nc3nc4c(c(=O)[nH]3)CCCC4)nc(C)c2c1 | -2.2 | -18.1 | 102.0 | 101.0
CCCOc1ccc(C(=O)NCC2(c3ccc(OC)cc3)CCOCC2)cc1 | -8.0 | -18.8 | 104.0 | 105.0
N#CCCC(=O)c1ccco1 | -8.1 | 2.2 | 105.0 | 107.0
O=C(CSC1=NCCS1)Nc1nc(-c2ccccc2)cs1 | · | -13.2 | 117.0 | 121.0
COC(=O)c1ccc(NC(=O)C(C)Sc2ncn(-c3ccccc3)n2)cc1 (stereo unspecified) | -5.7 | -23.5 | 102.0 | 105.0
O=c1[nH]c(SCCOc2ccccc2)nc2ccccc12 | · | -5.2 | 104.0 | 106.0
CCOC(=O)c1c(-c2ccccc2)oc2ccc(OCC(O)CN(C)C)cc12 (stereo unspecified) | 102.3 | -19.9 | 99.0 | 103.0
Cc1cc(C)c2cccc(N=CC3=C(O)CC(C)(C)CC3=O)c2n1 | 1.0 | · | 103.0 | 106.0
CCOc1ccc(NC(=O)c2cc3sccc3n2Cc2ccc(C)cc2)cc1 | -20.0 | 4.4 | 102.0 | 100.0
O=C(Nc1ccc(-c2nc3ccccc3o2)cc1)c1ccc(Br)o1 | -212.1 | -5.8 | 97.0 | 104.0
CCn1c(=Nc2ccc(N3CCOCC3)cc2)ccc2ccccc21 | 3.9 | -9.9 | 103.0 | 102.0
Cn1nc(N2CCCCCC2)c(=O)n(C)c1=O | -1.2 | 4.1 | 104.0 | 107.0
CCn1c(SCCCC(=O)c2ccc(Br)cc2)nnc1-c1cccs1 | -5.8 | -37.5 | 105.0 | 99.0
CCOc1cc(CNc2ccc(OC)cc2)ccc1OCC(=O)NC(C)(C)C | -12.8 | -15.2 | 99.0 | 97.0

New compounds follow.
structure | Mtb MbtI inh | Mtb MenB inh | PV pol inh | PV pol inh intensity
O=C(CN1C(=O)CSC1=O)Nc1nccs1 | -6.0 | -3.1 | 96.0 | 100.0
CN1CCCN(CC(O)COCc2cccs2)CC1 (stereo unspecified) | 6.6 | 3.2 | 104.0 | 106.0
O=C(O)c1ccc(C2CCCCC2)cc1 | -17.6 | 9.7 | 96.0 | 97.0
Cc1csc(SCc2cc(=O)c(OC(=O)c3ccco3)co2)n1 | 0.5 | -20.1 | 98.0 | 106.0
CCN(CC)CCCCCCCOC(=O)c1cc(OC)c(OC)c(OC)c1 | · | -10.8 | 102.0 | 101.0
CCCNC(=O)c1cnn2c1NC(c1cccc(OC)c1)CC2C(F)(F)F (stereo unspecified) | -9.1 | -14.7 | 103.0 | 100.0
O=C1CC2(CCCC2)C(=O)N1c1ccc(S(=O)(=O)N2CCc3ccccc3C2)cc1Cl | -11.5 | -25.0 | 103.0 | 107.0
CCC(C)C(NC(N)=O)C(=O)NC1CCC(C)CC1 (stereo unspecified) | -1.5 | 8.7 | 102.0 | 107.0
CN(C)/N=C/c1ccc(N2CCOCC2)cc1 | 16.1 | -75.3 | 102.0 | 108.0
O=C(COc1ccc(F)c(Cl)c1)n1cccn1 | -16.9 | 2.8 | 100.0 | 102.0
N#Cc1ccccc1Cn1c(=O)n(Cc2ccccc2)c(=O)c2ccccc21 | 4.0 | -16.6 | 102.0 | 106.0
NC(=O)C1CCN(Cc2cc(=O)oc3cc(O)ccc23)CC1 | 100.3 | -22.2 | 102.0 | 111.0
CC(=O)Nc1ccc(NC(=O)C(C)OC(=O)C2CC2)cc1 (stereo unspecified) | -10.4 | · | 99.0 | 105.0
Nc1nc(SCC(=O)OC2CCCC2)n[nH]1 | -16.9 | -8.1 | 100.0 | 103.0
Cc1cc(SCCOc2ccc(Cl)cc2Cl)nc(N)n1 | · | -26.7 | 106.0 | 107.0
O=C(Cn1nnc2ccccc21)OCc1ccccc1 | 11.0 | 8.8 | 97.0 | 101.0
O=C(CSc1nnc(-c2ccccc2)o1)N(CC1CCCO1)c1nc2ccccc2s1 (stereo unspecified) | -3.4 | -27.8 | · | ·
CCC1CN(S(=O)(=O)c2cc(-c3onc(C)c3C)ccc2OC)c2cc(Cl)ccc2O1 (stereo unspecified) | 1.6 | 3.3 | 101.0 | 101.0
Cc1noc(C)c1S(=O)(=O)N(C)c1ccc(Br)cc1 | -2.2 | -15.1 | 100.0 | 102.0
CN(C)S(=O)(=O)c1ccc(C(=O)OCC(=O)N2CCCCC2)cc1 | -9.1 | -41.2 | 110.0 | 95.0

The results go on:
structure | Mtb MbtI inh | Mtb MenB inh | PV pol inh | PV pol inh intensity
CCCc1cc(=O)[nH]c(SCC(=O)N2c3ccccc3NC(=O)C2(C)C)n1 | 30.1 | 8.7 | 105.0 | 101.0
N#C/C(=C/c1cn(CCC(N)=O)c2ccccc12)c1ccc(C#N)cc1 | -4.2 | -142.5 | 102.0 | 105.0
CCN1CCN(Cc2ccc(NC(=O)Cc3nc(-c4ccc(OC)cc4)no3)cc2)CC1 | -13.6 | -7.8 | 100.0 | 104.0
N#CCSc1nc2ccccc2c(=O)n1CCC(=O)NC1CCCCC1 | -13.4 | -2.7 | 103.0 | 105.0
C=C(C)C(C)(C#CCN1CCCC1)OC(C)=O (stereo unspecified) | -10.4 | -9.3 | 98.0 | 103.0
CCOC(=O)c1cc(C#N)c(N2CCN(S(=O)(=O)c3ccccc3)CC2)nc1C(F)(F)F | i | -8.8 | 102.0 | 104.0
CCOc1ccc(-n2c(SCC(=O)N3CCC(C)CC3)nc3n[nH]c(C)c3c2=N)cc1 | -18.4 | -8.7 | 99.0 | 103.0
CC(=O)N1CCN(CC(O)COc2ccc3oc4ccccc4c3c2)CC1 (stereo unspecified) | -13.3 | -18.2 | 106.0 | 102.0
O=C(NC1CCCC1)C(c1ccccc1)N(Cc1cccs1)C(=O)Cn1nnc2ccccc21 (stereo unspecified) | -7.8 | -12.5 | 104.0 | 100.0
CCCCCCCCCCCC1=C(O)C(=O)C=C(O)C1=O | -19.4 | -2.7 | 101.0 | 103.0
Cc1cc(C)nc(NC(=NCc2ccc(Cl)cc2)NC(=O)C(C)N2C(=O)c3ccccc3C2=O)n1 (stereo unspecified) | -2.3 | -16.9 | 105.0 | 109.0
CCc1ccccc1OCC(=O)O | -16.1 | · | 100.0 | 102.0
COCCCNc1nc2ccccc2n(CC(=O)N2CCCCCC2)c1=O | -10.8 | 5.4 | · | ·
CC(C)c1ccc(NC(=O)CSC2=Nc3ccccc3C3=NC(CC(=O)N4CCN(c5ccccc5)CC4)C(=O)N23)cc1 (stereo unspecified) | -3.8 | 7.4 | 99.0 | 104.0
O=c1[nH]c(-c2ccccc2)nn1-c1ccc(Br)cc1Br | -1.6 | -26.2 | 101.0 | 101.0
CCCCn1cc(C2CC(=O)N(c3ccc(Br)cc3)C2=O)c2ccccc21 (stereo unspecified) | -13.1 | -24.7 | 109.0 | 127.0
COc1ccc(CCNC(=O)CSc2nc3ccccc3o2)cc1 | -12.1 | -5.8 | 103.0 | 109.0
O=C(NC1CCN(Cc2ccccc2)CC1)[C@H](Cc1ccccc1)N1Cc2ccccc2C1=O | -2.3 | 8.5 | 104.0 | 98.0
COc1ccc2[nH]cc(CN(C)C)c2c1 | 14.8 | 11.5 | 105.0 | 97.0
COc1ccc2cc3c(nc2c1)OCC3 | i | -6.8 | 104.0 | 103.0

The list goes on.
structure | Mtb MbtI inh | Mtb MenB inh | PV pol inh | PV pol inh intensity
CC1CC2(O)c3no[n+]([O-])c3CCC2N1O (stereo unspecified) | -8.1 | -39.0 | 101.0 | 103.0
CCNc1nc(NCC)nc(C(=O)OCCO)n1 | 5.8 | 3.8 | 102.0 | 107.0
Cc1ccc(C(C)C)cc1OP1(=O)COc2ccccc2OC1 | -16.6 | -8.0 | 101.0 | 108.0
Cc1nc2sc3c(c2c2nnc(SCC(=O)c4ccccc4)n12)CCCC3 | -0.5 | -3.9 | 102.0 | 102.0
COc1ccc(-n2c(=S)[nH]c3cc(C(=O)NC4CCCC(C)C4C)ccc3c2=O)c(OC)c1 (stereo unspecified) | -7.8 | -36.5 | 102.0 | 100.0
COC(=O)C1=C(C)NC(=O)/C1=C\c1cc(C)n(-c2ccc(OC)c(Cl)c2)c1C | -32.1 | -86.2 | 103.0 | 106.0
Cc1ccc2c(CC(=O)OC(C)C(=O)Nc3ccc(N4CCOCC4)cc3)coc2c1 (stereo unspecified) | -15.7 | -10.0 | 100.0 | 110.0
CN(c1cc(=O)n2ccccc2n1)C1CCCCC1 | -9.0 | -13.6 | 103.0 | 105.0
CCOC(=O)CN1C(=O)C2(C(C(=O)OCC)=C(N)OC3=C2C(=O)CC(C)(C)C3)c2ccccc21 (stereo unspecified) | -8.2 | -9.1 | 102.0 | 106.0
Cc1nc(NCc2ccco2)nc2c1C(=O)CC(C)C2 (stereo unspecified) | 1.7 | -14.2 | 101.0 | 100.0
